Screening results from PubChem.
HCMV NEC inh – cytomegalovirus nuclear egress complex inhibition | HTRF UL50-UL53 interaction, normalized percent inhibition | inhibition, % (no concentration beside the values) | 0.15% of 190,000 active;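 active = both replicates at 50% or more, plus weaker picks with an unusually low signal ratio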;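 also: stock transfer was 100 nL into about 20 µL; 0% = negative control wells and 100% = wells with untagged competitor protein; inactives centre near -12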
Sa growth inh – blocks Staphylococcus aureus growth | S. aureus RN4220 growth, OD600, 20 h, 42 °C; stronger effect = lower value | relative growth, % (no concentration beside the values) | 0.53% of 170,000 active | AID 720641;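 active = growth at 42 °C up to 50% and 20 or more points under that at 30 °C, or under 10% at both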;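 also: 300 nL library stock went into each well; scaled to the means of positive and negative controls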
GIV-Gai inh – GIV-Galpha-i interaction inhibition. 0.42% of 210,000 active. Galpha-i3/FITC-GIV peptide fluorescence polarization, 90 min; stronger effect = lower value; scaled: aluminum fluoride 0%, vehicle 100%. percent of control (FP), % (no concentration beside the values);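 active = replicate mean at 85% of control or lower, very high polarization wells dropped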;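 also: wells of about 15 µL received 100 nL stock; the first replicate is given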
Target sequence (P08753 whole entry, looked up): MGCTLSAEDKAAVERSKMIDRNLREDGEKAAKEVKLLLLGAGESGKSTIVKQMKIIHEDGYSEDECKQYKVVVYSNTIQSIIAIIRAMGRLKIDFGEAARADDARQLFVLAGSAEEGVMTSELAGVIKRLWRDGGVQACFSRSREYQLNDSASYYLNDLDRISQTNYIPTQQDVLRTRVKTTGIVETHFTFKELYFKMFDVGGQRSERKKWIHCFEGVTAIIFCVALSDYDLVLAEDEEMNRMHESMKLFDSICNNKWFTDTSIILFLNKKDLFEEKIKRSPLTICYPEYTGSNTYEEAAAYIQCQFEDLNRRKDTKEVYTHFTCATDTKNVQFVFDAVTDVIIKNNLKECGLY
Sa growth inh second temp – second read-out of Sa growth inh, no call of its own (marks repeat the call); relative growth, %; measured here: growth at 30 °C;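 optical density after 20 h as mean of two plates; 100% = untreated growth and lower means inhibition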
Numbers without * were called inactive; · = no result given; & = joins results of further samples.

SMILES	HCMV NEC inh	Sa growth inh	Sa growth inh second temp	GIV-Gai inh
COc1ccc2nc(NC(=O)c3nc(S(=O)(=O)Cc4ccccc4)ncc3Cl)sc2c1	-32	89	81	99
O=C(CS(=O)(=O)c1cn(Cc2ccc(Cl)cc2)c2ccccc12)Nc1ccccc1	·	95	96	99
O=C(COC(=O)C1CC2C=CC1C2)c1ccccc1 (stereo not drawn)	9	72	92	·
CN(C)S(=O)(=O)N1CCN(c2ccccc2)CC1	-17	98	86	·
Cn1cnc(S(=O)(=O)N2CCC(C(=O)Nc3ccc4c(c3)OCCO4)CC2)c1	-22	·	·	105
CN(Cc1cccs1)C(=O)c1cc(Br)c(Br)s1	-5	102	96	·
COC(=O)c1ccc(NC(=O)CSc2cn(CC(=O)N3CCCCCC3)c3ccccc23)cc1	·	131	98	110
Cc1nc(N2CCCC2)c2c(C(=O)N3CCN(c4cccc(C)c4C)CC3)c(C)oc2n1	·	71	80	102
CCOC(=O)C1C(=O)C=C(c2cccc(OC)c2)CC1c1ccc(CC)cc1 (stereo not drawn)	·	78	80	100
O=C(Nc1ccccc1)N1CCCc2ccccc21	·	102	92	100
Cc1nn(-c2ccccc2)c2nc3ccccc3c(N3CCOCC3)c12	-34	88	83	111
O=C1C2c3ccccc3CCN2C(=O)CN1CCc1ccccc1 (stereo not drawn)	7	98	118	101
CCN(CC)CCNC(=O)C1CCN(c2ccnc(-c3ccc(C)cc3)n2)CC1	-20	·	·	104
O=C(NCc1ccccc1Cl)c1ccc2c(O)c(S(=O)(=O)c3ccccc3)c(=O)[nH]c2c1	·	109	86	92
COc1ccc(C(=O)NCCc2nc3ccccc3[nH]2)cc1	-3	105	106	112
COc1ccc(CCNC(=O)c2cc3c(=O)[nH]c4ccc(C)cc4c3s2)c(OC)c1	·	113	73	101
CC12CC3CC(C)(C1)CC(C(=O)NCCCN1CCCC1=O)(C3)C2	-27	94	98	99
COC(=O)c1ccc(CO/N=C/C(=O)Nc2cccc(C(F)(F)F)c2)o1	2	98	97	·
N/C(=N/O)c1cn(-c2ccccc2)nc1-c1ccccc1	-8	108	85	·
COc1cc2nc(C(C)(C)C)oc(=O)c2cc1OC	-9	86	85	98
CCOc1ccc(C(=O)Nc2ccc(-c3nnc4n3CCCCC4)cc2)cc1	·	108	87	101
O=C(CC1CCCC1)N1CCC2(CC1)Nc1ccccc1-n1cccc12	-7	·	·	113
Cc1cc2c(ccc3nonc32)nn1	-163	91	77	104
CCn1c(SCC(=O)NC2CCCC2)nnc1-c1ccccc1	-18	107	89	100
CC(C)N1C(=O)CSC1c1cccs1 (stereo not drawn)	2	93	93	·
The listing continues.
SMILES	HCMV NEC inh	Sa growth inh	Sa growth inh second temp	GIV-Gai inh
CCCSCCCNC(=O)CN1C(=O)COc2ccc(S(=O)(=O)N3CCC(C)CC3)cc21	-14	103	86	106
CCOc1ccc(OCC(=O)Nc2cc(C)nn2-c2ncnc3c2cnn3-c2ccc(F)cc2)cc1	-22	·	·	101
CNc1cc(Cl)nc(SC)n1	-2	·	·	108
Cc1ccc(-c2cnnc(-n3nc(C)c4c3NC(=O)CC4c3ccccc3)n2)cc1 (stereo not drawn)	-66	·	·	96
NC(=O)c1oc2ccccc2c1NC(=O)c1cc(-c2cccs2)nc2ccccc12	-13	·	·	103
COC(=O)c1c(C)oc(C)c1S(=O)(=O)NC(c1ccccc1)c1ccccc1	-12	98	84	111
O=C(NCc1cccs1)c1ccc2c(c1)sc1nc(-c3ccc(F)cc3)cn12	·	114	90	103
S=c1[nH]c2ccccc2n1-c1ccccc1	14	83	98	·
O=C(CSc1nc(-c2ccccc2)cc(C(F)(F)F)n1)NCCN1CCOCC1	-46	87	82	100
C(=C\C1Nc2ccccc2-c2nnc(SCc3ccccc3)nc2O1)/c1ccco1 (stereo not drawn)	·	113	68	108
CN1CCN(Cc2c(O)ccc3c(=O)c(-c4ccccc4Cl)c(C(F)(F)F)oc23)CC1	-8	·	·	109
O=C(O)CC12CC3CC(CC(C3)C1(F)F)C2	10	99	103	·
N#CCC(=O)Nc1ccc(C(=O)NCc2ccccc2)cc1	-3	96	88	·
CCCN1CCN(C(=O)Cn2nc(N3CCN(c4ccccc4OC)CC3)ccc2=O)CC1	-22	·	·	99
Cn1cccc1C(=O)NN	8	101	103	·
N#Cc1ccccc1NC(=O)c1cc2c(s1)-c1ccccc1SC2	·	91	73	100
CC(=O)N1CCN(C(=O)CSc2nc(-c3ccc(F)cc3)cs2)CC1	13	105	108	·
FC(F)Oc1ccc(-c2csc(=Nc3cccnc3)n2C2CC2)cc1	-46	95	88	·
O=C(Nc1cccc(F)c1)c1ccc2oc(=O)n(Cc3ccccc3)c2c1	·	111	98	105
NC(=O)COc1cc2oc(=O)c3c(c2cc1Cl)CCCC3	-1	84	63	106
Cn1c(=O)[nH]c(=O)c2c1nc(Br)n2CC(O)COc1ccc(Cl)cc1Cl (stereo not drawn)	4	116	75	·
CC1CCc2sc(C(=O)N/N=C/c3ccco3)cc2C1 (stereo not drawn)	5	93	105	·
CC1(C)CC(=O)C(C(=N)Cc2ccccc2)=C(O)C1	-35	102	89	·
COc1ccc(C2C(C(=O)Nc3cccc(C)n3)c3ccccc3C(=O)N2c2ccc(OC)cc2)cc1 (stereo not drawn)	-17	111	82	96&101
CCOc1cc(C#N)c(NC(=O)Cn2nnc3ccccc32)cc1OCC	11	107	95	105

Sorted by molecular weight (rising): part of the list above
SMILES	HCMV NEC inh	Sa growth inh	Sa growth inh second temp	GIV-Gai inh
Cn1cccc1C(=O)NN	8	101	103	·
CNc1cc(Cl)nc(SC)n1	-2	·	·	108
CC1CCc2sc(C(=O)N/N=C/c3ccco3)cc2C1 (stereo not drawn)	5	93	105	·
NC(=O)COc1cc2oc(=O)c3c(c2cc1Cl)CCCC3	-1	84	63	106
N#Cc1ccccc1NC(=O)c1cc2c(s1)-c1ccccc1SC2	·	91	73	100

Among those listed so far, these contain a furan ring, fused or not:
SMILES	HCMV NEC inh	Sa growth inh	Sa growth inh second temp	GIV-Gai inh
Cc1nc(N2CCCC2)c2c(C(=O)N3CCN(c4cccc(C)c4C)CC3)c(C)oc2n1	·	71	80	102
COC(=O)c1ccc(CO/N=C/C(=O)Nc2cccc(C(F)(F)F)c2)o1	2	98	97	·
NC(=O)c1oc2ccccc2c1NC(=O)c1cc(-c2cccs2)nc2ccccc12	-13	·	·	103
COC(=O)c1c(C)oc(C)c1S(=O)(=O)NC(c1ccccc1)c1ccccc1	-12	98	84	111
C(=C\C1Nc2ccccc2-c2nnc(SCc3ccccc3)nc2O1)/c1ccco1 (stereo not drawn)	·	113	68	108
CC1CCc2sc(C(=O)N/N=C/c3ccco3)cc2C1 (stereo not drawn)	5	93	105	·

New compounds follow:
SMILES	HCMV NEC inh	Sa growth inh	Sa growth inh second temp	GIV-Gai inh
O=c1[nH]c2cc3c(cc2c(=O)n1Cc1nc(-c2ccccn2)no1)OCO3	-16	·	·	111
CCn1c(O)c(C=NC2CCCCCC2)c(=O)[nH]c1=S	-8	121	94	105
OCCCCC1OC2CCCCC2C2=CCCCC21 (stereo not drawn)	7	63	59	97
Cc1ccc(-c2nc(S(=O)(=O)c3ccc(C)cc3)c(N3CC(C)OC(C)C3)o2)cc1 (stereo not drawn)	7	·	·	108
CCN(CC)CCCNC(=O)CN1N=C(c2ccccc2)CCC1=O	·	87	88	98
CCOc1cccc(C2Nc3ccccc3-n3cc4c(=O)n(C)c(=O)n(C)c4c32)c1O (stereo not drawn)	8	·	·	96
O=c1c2ccccc2c(/C=N/C2=NCCS2)c(O)n1-c1ccc(Cl)cn1	-42	97	84	·
COC(=O)C1SCCN1S(=O)(=O)c1ccc(Cl)cc1 (stereo not drawn)	-14	88	86	101
COc1ccc(C2(C#N)CCc3[nH]c4ccccc4c3C2)cc1OC (stereo not drawn)	5	104	89	·
COc1ccc(N2CCN(c3nc(OC)nc(OC)n3)CC2)cc1	-1	·	·	101
CCn1c(CN2CCOCC2)nc2ccccc21	34	·	·	104
Cc1[nH]c2ccccc2c1CCNC(=O)c1cc2cc(Br)ccc2oc1=O	-5	98	86	·
CC(=O)N1C(=O)/C(=C\C(=O)c2ccc(C)cc2)c2ccccc21	-14	116	81	·
COc1ccc(-n2nc3ccc(NC(=O)CSc4ccc(Cl)cc4)cc3n2)cc1	·	107	69	101
CCn1c(=O)cc(SCC(=O)NCc2ccc(Cl)cc2)c2ccccc21	·	96	93	100
Cc1ccnc(NC(=O)c2noc3c2CCCC3)c1	-3	·	·	100
Cc1c(Cl)cccc1NC(=O)Cn1nc(C(F)(F)F)c2c1CCC2	-24	96	84	106
CC(C)n1c(N2CCN(Cc3ccc(Cl)cc3)CC2)nc2ccccc21	-1	126	78	102
O=c1ccc(-c2ccccc2)no1	-40	93	79	96
COc1ccc(Br)c2c1-c1nc(/N=C/c3ccc(C)cc3)sc1C2	·	92	53	111
COc1ccc(S(=O)(=O)c2cnc3cc(OC)c(OC)cc3c2N2CCC(C)CC2)cc1	3	91	78	107
COc1ccc(C(=O)NC(c2ccc(Cl)cc2)c2cc(Cl)c3cccnc3c2O)cc1 (stereo not drawn)	·	90	57	99
Cc1ccc2cc3cc(C(=O)N4CCN(c5ccc(Cl)cc5)CC4)oc3nc2c1	-12	116	88	107
CC1CCN(S(=O)(=O)c2ccc3c(c2)N(CC(=O)NCCN(C)C)C(=O)CO3)CC1	-20	93	86	101
Cc1ccc(C2c3[nH]c4ccccc4c3CCN2C(=O)c2cccc(C)c2)cc1 (stereo not drawn)	·	105	106	105
Going on with the list:
SMILES	HCMV NEC inh	Sa growth inh	Sa growth inh second temp	GIV-Gai inh
Cc1cc(C(=O)CSCc2nnc3n(CCC(C)C)c(=O)c4ccccc4n23)c(C)n1C	-5	85	95	·
CC(=O)Nc1ccc(NC(=O)NC2(c3ccccc3)CC2)cc1	2	94	91	·
Cc1nc(-c2cccs2)sc1C(=O)N1CCN(S(=O)(=O)c2ccccc2C(F)(F)F)CC1	-30	83	86	·
O=S(=O)(NCc1cccn1Cc1ccccc1)c1ccccc1F	-23	·	·	108
CC(C)c1ccc(OCC(=O)Nc2ccc3c(c2)NC(=O)CO3)cc1	-19	·	·	103
COc1ccc(NC(=O)Cn2c(=O)n(Cc3ccc(C(=O)NCc4ccccc4Cl)cc3)c(=O)c3ccccc32)cc1	-11	98	86	104
CCOc1cc(C#N)c(NC(=O)Cn2nnc(-c3ccc(C)cc3)n2)cc1OCC	-14	107	90	102
CC(C)(C)C1CCc2c(sc3nc(-c4cc5ccccc5oc4=O)[nH]c(=O)c23)C1 (stereo not drawn)	-8	98	91	108
O=C(CSc1nc(=O)n(Cc2cccnc2)c2c1CCC2)Nc1ccc(F)cc1F	·	128	85	103
CC(C)CCn1c(=O)c2ccccc2n2c(COC(=O)C3CC=CCC3)nnc12 (stereo not drawn)	-4	97	85	·
COc1cccc(/C=C2/SC(=Nc3ccccc3Cl)NC2=O)c1	-16	·	·	104
[O-][n+]1ccccc1SC/C=C/c1ccccc1	-14	·	·	102
CN(C)c1nc(Oc2ccc(=O)n(-c3ccccc3)n2)nc(N2CCOCC2)n1	-13	97	84	106
Cc1c(-c2cccc(NC(=O)C(C)(C)C)c2)nc2ncccn12	·	89	85	98
CCCn1c(=O)sc2ccccc2c1=O	9	·	·	106
COc1cccc(CNC2=NCCC2)c1	-33	92	88	·
CCCC(=O)N1c2ccccc2C(N(C(C)=O)c2ccccc2)CC1C (stereo not drawn)	-1	102	94	108
CCCCN(CCCC)CCNC(=O)Cn1nc(CC)n2c(cc3sc(C)cc32)c1=O	-21	108	81	99
C/C(=N\OCc1ccc(C(=O)N2CCOCC2)o1)c1ccc(Cl)cc1Cl	-23	98	93	101
COc1ccc2[nH]c3c(c2c1)CCN(C(=O)c1ccc(C)cc1)C3c1ccc(F)cc1 (stereo not drawn)	-30	·	·	99
C=CCc1cccc2cc(C(=O)Nc3c(C)n(C)n(-c4ccccc4)c3=O)c(=O)oc12	-31	·	·	97
Cn1c(SCC(=O)N2CCCC2)nc2c(-c3ccccc3)csc2c1=O	15	·	·	100
CC(C)(C)C1CCc2c(sc(NC(=O)c3cccc(Cl)c3)c2C(=O)NCc2ccco2)C1 (stereo not drawn)	14	101	112	105
Cn1cnc2c(=O)oc3ccc(S(=O)(=O)N4CCN(c5ccccc5)CC4)cc3c21	3	114	94	108
CNCC(=O)N(C)C	11	104	101	·
Next section.
SMILES	HCMV NEC inh	Sa growth inh	Sa growth inh second temp	GIV-Gai inh
O=S(=O)(c1ccc(-c2noc(COc3ccc(Cl)cc3)n2)cc1)N1CCCC1	-10	·	·	116
Cc1ccc(OC(=O)c2cc(C)nn2C(C)(C)C)cc1	6	93	84	102
Cn1c(SCc2ccccc2)nc2c(c1=O)C1(CCCC1)Cc1ccccc1-2	-5	·	·	106
CCc1nc2ccccc2c(C(=O)OCC(=O)c2ccc3c(c2)OCCO3)c1C	-8	96	85	·
O=C(COc1ccc(F)cc1)N/N=C/c1ccc2c(c1)OCCO2	-4	95	84	·
CC(CN(C)Cc1ccccc1)OC(=O)c1ccco1 (stereo not drawn)	-12	88	84	98
COc1ccc(NC(=S)N2CCCCC2)cc1	-16	98	90	·
O=C(CSCc1cnn(-c2ccccc2)c1-n1cccc1)NCc1cccnc1	4	103	80	105
CCOc1ccc(S(=O)(=O)N2CCN(c3ccccc3OC)CC2)cc1-c1nc(CC)no1	3	·	·	105
O=C(CCCn1ncn2c(cc3occc32)c1=O)NCc1ccccc1F	-29	112	83	102
